# High-throughput results deposited in PubChem by National Center for Advancing Translational Sciences (NCATS).
# VDR inhibitor: vitamin D3 receptor (human) inhibition; Potency, µM, for inactives: max response, negative = inhibition, most hits filed as inhibitors; 400,000 compounds, 0.93% hits; VDR-SRC2-3 peptide fluorescence polarization, 2 h; active means well fitted inhibition curve with a large enough effect; inconclusive means small, poorly fitted or top-dose-only effect, or another doubt; inactive means no such curve, though single readings can be large or run the other way; further: series mostly up to about 120 µM
# Target sequence (P11473 whole entry, looked up): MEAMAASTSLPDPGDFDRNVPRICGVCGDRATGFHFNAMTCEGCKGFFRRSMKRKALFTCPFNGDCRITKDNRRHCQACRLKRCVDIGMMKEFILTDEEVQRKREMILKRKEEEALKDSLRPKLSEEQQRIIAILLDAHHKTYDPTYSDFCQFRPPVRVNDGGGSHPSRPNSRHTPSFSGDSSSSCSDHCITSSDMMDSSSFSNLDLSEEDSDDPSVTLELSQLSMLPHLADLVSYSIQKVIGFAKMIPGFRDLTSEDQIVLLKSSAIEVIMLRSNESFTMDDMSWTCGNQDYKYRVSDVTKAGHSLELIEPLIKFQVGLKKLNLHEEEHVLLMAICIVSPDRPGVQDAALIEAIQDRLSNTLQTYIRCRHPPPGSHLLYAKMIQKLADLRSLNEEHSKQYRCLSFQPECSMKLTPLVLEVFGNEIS
#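 FP read-out; VDR + SRC2-3 coactivator peptide; 23 nl compound by pintool; 2 h RT incubation; reagents held at 4 deg C, protected from light.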
# * marks the source's active call; other numbers are inactive results; u = inconclusive; [ ] = remark or other dose. On the % scale 0 is the no-effect control and ±100 the full control effect; potency means the concentration at half of the fitted maximal effect. Not all compounds are listed. The share of hits here may be higher or lower than overall.
# Start of the data: the first 15 records (preview)
SMILES,VDR inhibitor
O=C(N/N=C\c1ccc([N+](=O)[O-])s1)C1COc2ccccc2O1 (configuration not stated),1%
O=C(COC(=O)c1ccco1)Nc1ccc2c(c1)OCCO2,7%
CCOc1ccc(-n2c(=O)c3c4c(sc3n(CC(=O)NC(C)CC)c2=O)CCCC4)cc1 (configuration not stated),-3%
CCc1ccc2occ(CC(=O)Nc3c(C(=O)c4ccc(C)cc4)oc4ccccc34)c2c1,-2%
CC(C)Oc1ccc(/C=C(\NC(=O)/C=C/c2ccco2)C(=O)NCCc2nc3ccccc3[nH]2)cc1,0%
CCc1ccc(C(=O)NNC(=O)c2cccc(S(=O)(=O)N3CCN(C)CC3)c2)cc1,-5%
O=C(NC(NC(=S)Nc1cccc(C(=O)O)c1)C(Cl)(Cl)Cl)OCc1ccccc1 (configuration not stated),-14%
COc1cc(NC(=S)NCCCN2CCOCC2)c(OC)cc1NC(=O)c1ccco1,4%
Cc1cc(NC(=O)CSc2nnc(Cc3ccccc3)n2C)no1,-9%
COC(=O)C[C@H](NC(=O)[C@H](C)NC(=O)[C@@H](NC(=O)OCc1ccccc1)C(C)C)C(=O)CF,14%
CCn1c2c(c(=O)n3ncc(C(=O)Nc4ccc(C(=O)OC)cc4)c13)CN(Cc1ccc(OC)cc1)CC2,15%
CC(C)(C)n1nc2c(c1NC(=O)C1CC(=O)N(c3ccc(Cl)cc3)C1)CS(=O)(=O)C2 (configuration not stated),-9%
CC(=O)Oc1ccc(C2(C)CC(C)(C)NC(=S)N2C)c(OC(C)=O)c1 (configuration not stated),-24%
CCN(CC)S(=O)(=O)c1ccc(-n2cnc3cc(C)c(C)cc32)nc1,-6%
Oc1ccc(NCc2ccc(OCc3ccccc3Cl)cc2)cc1,u

# All compounds of this part (from the top)
SMILES,VDR inhibitor
O=C(N/N=C\c1ccc([N+](=O)[O-])s1)C1COc2ccccc2O1 (configuration not stated),1%
O=C(COC(=O)c1ccco1)Nc1ccc2c(c1)OCCO2,7%
CCOc1ccc(-n2c(=O)c3c4c(sc3n(CC(=O)NC(C)CC)c2=O)CCCC4)cc1 (configuration not stated),-3%
CCc1ccc2occ(CC(=O)Nc3c(C(=O)c4ccc(C)cc4)oc4ccccc34)c2c1,-2%
CC(C)Oc1ccc(/C=C(\NC(=O)/C=C/c2ccco2)C(=O)NCCc2nc3ccccc3[nH]2)cc1,0%
CCc1ccc(C(=O)NNC(=O)c2cccc(S(=O)(=O)N3CCN(C)CC3)c2)cc1,-5%
O=C(NC(NC(=S)Nc1cccc(C(=O)O)c1)C(Cl)(Cl)Cl)OCc1ccccc1 (configuration not stated),-14%
COc1cc(NC(=S)NCCCN2CCOCC2)c(OC)cc1NC(=O)c1ccco1,4%
Cc1cc(NC(=O)CSc2nnc(Cc3ccccc3)n2C)no1,-9%
COC(=O)C[C@H](NC(=O)[C@H](C)NC(=O)[C@@H](NC(=O)OCc1ccccc1)C(C)C)C(=O)CF,14%
CCn1c2c(c(=O)n3ncc(C(=O)Nc4ccc(C(=O)OC)cc4)c13)CN(Cc1ccc(OC)cc1)CC2,15%
CC(C)(C)n1nc2c(c1NC(=O)C1CC(=O)N(c3ccc(Cl)cc3)C1)CS(=O)(=O)C2 (configuration not stated),-9%
CC(=O)Oc1ccc(C2(C)CC(C)(C)NC(=S)N2C)c(OC(C)=O)c1 (configuration not stated),-24%
CCN(CC)S(=O)(=O)c1ccc(-n2cnc3cc(C)c(C)cc32)nc1,-6%
Oc1ccc(NCc2ccc(OCc3ccccc3Cl)cc2)cc1,u
COc1cccc(Nc2nnc(SCc3nc4ccccc4s3)s2)c1,7%
Cc1cccn2cc(CCNS(=O)(=O)c3ccc4c(c3)OCCO4)nc12,-17%
CCSc1nnc(-c2sc3nnc(-c4ccccc4)c(-c4ccccc4)c3c2N)o1,20%
Cc1ccc(COC(=O)c2cccc(S(=O)(=O)N3CCCCCC3)c2)cc1,-6%
COc1ccc(CCNC(=O)CC(Cc2ccccc2)C(=O)O)cc1OC (configuration not stated),-9%

# Quoted at random: 2 compounds from above
SMILES,VDR inhibitor
Cc1cccn2cc(CCNS(=O)(=O)c3ccc4c(c3)OCCO4)nc12,-17%
CC(C)(C)n1nc2c(c1NC(=O)C1CC(=O)N(c3ccc(Cl)cc3)C1)CS(=O)(=O)C2 (configuration not stated),-9%

# (further entries)
SMILES,VDR inhibitor
CC(C)C(=O)NCCc1nc2ccccc2n1CCCOc1ccc(Cl)cc1,-18%
COC(=O)C(NC(C)=O)(Nc1cc(C)ccn1)C(F)(F)F (configuration not stated),9%
CN(CC(=O)NC1CCCC1)S(=O)(=O)c1cccc(Cl)c1,-5%
CCCN[C@@H]1C(=O)N2C(C(=O)OCCC)=C(C)CS[C@H]12,-27%
COc1cc(/C=C2/SC(=S)N(c3c(C)n(C)n(-c4ccccc4)c3=O)C2=O)ccc1O,16%
O=C(OCC(=O)N1CCc2ccccc21)c1ccccc1F,-8%
CCOc1ccc(CCNC(=O)c2nn(-c3ccc(OC)c(Cl)c3)c(=O)c3c2c2ccccc2n3C)cc1OCC,-13%
O=C(Nc1c[nH]c2c(Cl)cccc2c1=O)N1CCN(c2ccccn2)CC1,-1%
O=C(CNC(=O)c1[nH]cnc1C(=O)N[C@@H](Cc1ccccc1)C(=O)OCc1ccccc1)OCc1ccccc1,-25%
C(=N\NC1=NCCN1)/c1ccncc1,-21%
CCOc1ccc2c(c1)C(c1cccs1)=NNC(c1cccnc1)=N2,-7%
O=C1C(=O)N(CCCO)C(c2ccccc2)/C1=C(\O)c1ccc(Br)cc1 (configuration not stated),-3%
CCCC(=O)N1CCN(c2ccc(NC(=O)C(C)(C)C)cc2Cl)CC1,15%
Cc1cc(C)c2c(n1)nn1c(C)c(CCC(=O)Nc3cccc(C)c3C)c(C)nc21,20%
CC(=O)Nc1ccc(SCC(=O)N(CCC#N)c2cc(C)cc(C)c2)cc1,9%
O=C(O)c1ccc2c(c1)C(=O)N(CCCCCCCN1C(=O)c3ccc(C(=O)O)cc3C1=O)C2=O,-14%
CCN1CCN(c2ccc(N3CCN(C(=O)c4ccc(Br)o4)CC3)nn2)CC1,-2%
COc1ccccc1-n1c(CNC(=O)c2cccs2)n[nH]c1=S,-9%
CCCc1cc(=O)[nH]c(SCC(=O)CSc2nc(CCC)cc(=O)[nH]2)n1,u
CCCC(C(=O)NC1CCCC1)N(C(=O)Cn1nnc(-c2ccc(C)o2)n1)C1CCCC1 (configuration not stated),-25%
CCc1ccc(OCC(=O)NC(NC(=S)Nc2ccccc2C)C(Cl)(Cl)Cl)cc1 (configuration not stated),-22%
CCOC(=O)C(=Cc1ccc2c(c1)OCO2)c1ccccc1,12%
C=CCNc1nnc(-c2ccncc2)s1,11%
CCN(CC)CCn1c2c(c(SCC(=O)Nc3ccccc3Cl)nc1=O)CCC2,5%
CS(=O)(=O)N(CC(=O)NCCSC1CCCCC1)c1cccc(F)c1,-2%
COc1ccc(C(CNC(=O)CN2C(=O)NC(C)(c3ccc4ccccc4c3)C2=O)N2CCCC2)cc1 (configuration not stated),-14%
CC1=CC=CN2C1=NC(=O)CC2(C)C(=O)N(CC(=O)NC1CCCC1)c1cc(C)cc(C)c1 (configuration not stated),-8%
COc1ccc(/C=N/NC(N)=S)cc1OC(=O)c1cccc2ccccc12,-7%
Nc1ncnc2c1ncn2[C@@H]1O[C@H](CNCc2ccccc2OCC(=O)N2CCCCC2)[C@@H](O)[C@H]1O,-12%
Cc1nn(C)c(C)c1NC(=O)CCSc1nc(-c2ccco2)cc(C(F)(F)F)n1,6%
COC(=O)C1CCN(C(=O)COc2ccc(S(=O)(=O)N3CCOCC3)cc2Cl)CC1,1%
COc1cccc(OCc2nc3ccccc3n2CCOc2ccccc2C)c1,6%
O=C(c1cccc(S(=O)(=O)N2CCN(c3ccccc3)CC2)c1)N1CCCC(C(F)(F)F)C1 (configuration not stated),-20%
COc1ccc(OC)c(NC(=S)N(CCc2c(C)[nH]c3ccc(C)cc23)Cc2cccs2)c1,-16%
COc1ccc(CNc2nc(NCc3ccc(OC)cc3)c3ncn(C4CCCC4)c3n2)cc1,-20%
O=C(N/C(=C/C=C/c1ccccc1)C(=O)N1CCCCC1)c1ccc([N+](=O)[O-])cc1,-20%
COc1ccc(-n2c(=O)c3c4c(sc3n(CC(=O)NC3CCCC3)c2=O)CCCC4)c(OC)c1,-4%
COc1ccc(NC(=O)COc2ccc3c(C)cc(=O)oc3c2)cc1S(=O)(=O)N1CCCCC1,33%[activator]
CC(NC(=O)c1ccccc1F)c1nnc(SCC(=O)N2CCN(c3ccccc3)CC2)n1C (configuration not stated),-8%
CCCCNCCOCCOc1ccccc1-c1ccccc1,-9%
C=CCNC(=S)NNC(=O)c1ccc(=O)n(Cc2ccc(Cl)cc2Cl)c1,0%
O=C(CSc1nnc(-c2ccccc2)o1)N1CCCc2ccccc21,-8%
O=C(Nc1ccccc1)Nc1nc(-c2ccc(Cl)cc2)cs1,18%
Cc1ccc(CCNC(=O)CN2C(=O)COc3ccc(S(=O)(=O)N4CCCC4)cc32)cc1,5%
CCOC(=O)c1cnc2c(ccc3ccccc32)c1Nc1ccccc1O,-4%
CC1CCCCC1NC(=O)COC(=O)c1ccc2c(c1Cl)C(=O)c1ccccc1C2=O (configuration not stated),1%
CCN(c1cccc(C)c1)S(=O)(=O)c1cccc(C(=O)O)c1,-1%
O=C(NCCCN1CCCC1)c1cccc(N2CCCC2=O)c1,20%
CCCCN(C(=O)CSc1nnc(Nc2ccc(C)c(C)c2)s1)c1c(N)n(Cc2ccccc2)c(=O)[nH]c1=O,-3%
CC1=C(C(=O)NC2CCC(C)CC2)C2(CCC(C)CC2)OC1=O (configuration not stated),3%
# (cont.)
SMILES,VDR inhibitor
Cc1cc(NC(=O)CCc2ccc(-c3ccccc3)o2)no1,-14%
O=C(Cc1nnc(NC(=O)c2ccccc2)s1)N/N=C/c1ccco1,-11%
CCN(C(=O)c1cnc(NC(C)C)cc1C(F)(F)F)c1ccc(Cl)cc1Cl,8%
Cc1ccc(OCC(=O)NNC(=O)CSc2ncc(C#N)c(N)n2)cc1,-9%
CCN1CCN(c2ccc(S(=O)(=O)N3CCCCC3)cc2NC(=O)c2ccc(C)c(C)c2)CC1,-11%
Cc1cc(C)c2c(N)c(C(=O)c3ccccc3)oc2n1,1%
N#Cc1ccccc1NC(=O)Cn1cnc2onc(-c3cccc(F)c3)c2c1=O,6%
O=C(NC(=S)Nc1ccccc1[N+](=O)[O-])c1ccco1,2%
CSc1nc(N)c2ncn([C@H]3O[C@H](COP(=O)(O)OP(=O)(O)OP(=O)(O)O)[C@@H](O)[C@@H]3O)c2n1,1%
CCC/C(O)=C1\C(=O)CC(c2ccccc2)CC1=NC (configuration not stated),9%
Cc1ccc(C(=O)NCCN2CCOCC2)cc1Cl,-6%
Cc1c(NC(=O)C(C)n2cc([N+](=O)[O-])cn2)c(=O)n(-c2ccccc2)n1C (configuration not stated),-14%
O=C(Nc1ccc(S(=O)(=O)N2CCOCC2)cc1)c1ccc([N+](=O)[O-])o1,3%
Brc1ccc(CNCC2CCCO2)cc1 (configuration not stated),-1%
CCC1(c2ccc(Cl)cc2)NC(=S)N(c2ccc(C)c(C)c2)N1 (configuration not stated),u
CSc1sc(C)cc1C1C(C#N)=C(N)N(c2cccnc2)C2=C1C(=O)CC(C)(C)C2 (configuration not stated),9%
CCCCn1c(SCC(=O)Nc2nnc(CC)s2)nc2c1c(=O)n(C)c(=O)n2C,-13%
COC(=O)C(C(=O)OC)=C(/C=C/C=C/N(C)C)N(C)C,12%
CC(=O)N1c2ccc(Cl)cc2C2C=CCC2C1c1cccc2ccccc12 (configuration not stated),u
COc1ccccc1N1CCN(c2ccc(Cl)nn2)CC1,-12%
CN(C)C(=O)c1c(NC(=O)c2ccco2)sc2c1CCCCC2,-8%
O=C(COc1ccc2ccccc2c1)NNC(=O)C(=O)Nc1ccccc1,12%
Cc1ccc(S(=O)(=O)/N=C(/c2ccccc2)N(C)C)c(C)c1,16%
Clc1ccc(Oc2nc(N3CCOCC3)nc(N3CCOCC3)n2)cc1,16%
COc1ccc(C(=O)N(C)c2c(C)n(C)n(-c3ccccc3)c2=O)cc1OC,1%
COc1ccccc1S(=O)(=O)c1c(C)cc(C)[nH]c1=O,-6%
NC(=S)Nc1ccc2c(c1)OCO2,-12%
Cc1cc(NS(=O)(=O)c2ccc(NC(=O)c3cnc4scc(C)n4c3=O)cc2)nc(C)n1,5%
Cc1ccc(C(=O)NCCCNC(=O)COc2ccc(Cl)c(C)c2)cn1,-2%
Oc1ccc2[nH]cnc2c1CN1CCCCC1,8%
CCCCCCOC(=O)c1ccccc1NC(=O)/C=C/C(=O)O,u
CN1CCN(/N=C/c2c3ccccc3c(Cl)c3ccccc23)CC1,-14%
COCCn1ccc2c(OCC(=O)Nc3cccc(OC)c3)cccc2c1=O,-7%
Cc1cccc(N2CCN(C(=O)c3cn(CC(C)C)c(=O)c4c3c3ccccc3n4C)CC2)c1C,u
COc1ccc2cc(C(c3nnnn3Cc3ccccc3)N3CCCCCC3)c(=O)[nH]c2c1 (configuration not stated),-6%
CC(Sc1nc2ccccc2s1)C(=O)Nc1nnc(C(C)C)s1 (configuration not stated),-9%
CC(C)(C)OC(=O)C[C@H]1C/C=C\C[C@@H](CC(=O)N(CCO)Cc2ccccc2)C(=O)N[C@@H](Cc2ccccc2)COC1=O,-12%
CCN(C(=O)COC(=O)c1c(-c2ccccc2)noc1C)C1CCS(=O)(=O)C1 (configuration not stated),-8%
COc1ccc(-c2nc3ccccc3s2)cc1NC(=O)COc1cccc(C)c1,4%
Nc1nccnc1C(=O)OCC(=O)NCCc1ccc(Cl)cc1,-20%
COc1ccc(C(=O)CC(=O)c2ccccc2O)cc1,6%
O=C(O)c1cc([N+](=O)[O-])ccc1Nc1ccccc1,-7%
Cc1nn(CC(=O)NCCCN2CCCCC2C)c(=O)c2cccn12 (configuration not stated),14%
COCCC(=O)N1CCC(Oc2ccc(C(=O)NCCSC)cc2)CC1,3%
CC12CC(NC(=O)N1c1cccc(C(=O)N3CCCCC3)c1)c1ccccc1O2 (configuration not stated),3%
